SmPrx2 inh: Schistosoma Mansoni Peroxiredoxins (Prx2) | Potency, µM | S. mansoni Prx2 activity coupled to TGR/GSH (TGR is thioredoxin glutathione reductase), NADPH fluorescence loss, qHTS; some inactives read as strong as hits | hit rate 0.07% among 65,000 | Schistosoma mansoni peroxiredoxin 2 (Prx2); active means full or partial inhibition curve with a strong effect at the top dose; inconclusive means weaker partial or single-point curve; inactive means no accepted curve; also: series up to 57 µM; many of its hits are not listed in these tables
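Prx2 activity was followed as the loss of NADPH fluorescence (ex 365/em 450 nm), read every 30 sec for 8 min after H2O2 start. The enzyme mix (50 nM Prx2, 25 nM TGR, GSH, NADPH; pH 7.4 phosphate buffer) was incubated with compound for 15 min at room temperature first.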
Anthrax LT inh: qHTS Assay for Anthrax Lethal Toxin Internalization; Cells, anthrax lethal toxin internalization, FRET ratio (460/530); Potency, µM (series often up to 40 µM), for inactives: at the highest dose activity change, negative = inhibition, usual class: inhibitors; hit rate 0.67% among 70,000; AID 912, 2007; active = well fitted falling ratio curve with the 530 nm signal flat; inconclusive = other ratio curves, or a change in one channel alone; inactive = flat curves in the ratio and both channels; the % refers to the ratio; also: % is scaled to controls: 0 for no effect and ±100 for the full control effect; nearly all actives have a fitted effect of over 50% in size; tested in ME-180 cells; beta-lactamase reporter
The depositor's hits bear a star; ? = inconclusive; . = no result given; & = joins results of further samples; [ ] = dose if it differs, or a comment. Potency is read from the fitted curve at half-maximal effect. Only part of the results is shown; rates above refer to the full screens.

Screens in order – SmPrx2 inh, Anthrax LT inh
Cc1oc(-c2cc(Cl)ccc2Cl)cc1-c1nn2c(C)nnc2s1
→ >57, 8%
COc1cc(NC(=O)Cc2ccccc2OC)cc(OC)c1
→ >57, -12%
Cc1ccc(S(=O)(=O)N2CCC(C(=O)O)(c3ccccc3)CC2)cc1
→ >57, 1%[8 µM]
CCCS(=O)(=O)N1CCC(C(=O)NC2CCCC(C)C2C)CC1 (configuration not stated)
→ >57, 4%
Cc1cccc(-c2nnc(N)s2)c1
→ >57, -3%
O=[N+]([O-])c1ccc(F)cc1F
→ ., 1%
O=S(=O)(NCCSc1ccccc1)c1ccc2c(c1)OCCO2
→ >57, -21%
CCOC(=O)c1ccc(COC(=O)c2cc(=O)[nH]c3ccccc23)o1
→ >57, 5%
CCCCNC(=O)CCn1nc(-c2ccccc2)ccc1=O
→ >57, ?
CCCCC(CC)C(=O)NCCc1ccc(S(N)(=O)=O)cc1 (configuration not stated)
→ ., 3%
O=C(Nc1ccc(CN2CCCCC2)cc1)c1ccc2c(c1)OCO2
→ >57, -3%
CNC(=O)CN(C)S(=O)(=O)c1ccc(OC)c(Cl)c1
→ >57, 0%
CC(=O)N1CCc2c(sc(NC(=O)c3ccc(S(=O)(=O)N(C)C)cc3)c2C#N)C1
→ >57, -13%
CCN(CC)S(=O)(=O)c1ccc(-c2nnco2)cc1
→ >57, 2%
N#CC1(c2ccccc2)CCCN1C(=O)c1ccc(Br)o1 (configuration not stated)
→ >57, 0%
C=CCn1c(COc2ccccc2)nnc1SCC(=O)NCC(=O)OCC
→ >57, -5%
CC(=O)n1nc(-c2ccccc2)nc1NCc1ccc(F)cc1
→ >57, -12%
COc1cccc(-c2csc(N3CCN(C(=O)Nc4ccccc4OC)CC3)n2)c1
→ >57, ?
O=C1C2ON(c3ccc(Cl)cc3)C(c3ccco3)C2C(=O)N1c1ccccc1 (configuration not stated)
→ >57, -1%
c1ccc(-c2noc(CSc3nnc(Cc4cccs4)n3-c3ccccc3)n2)cc1
→ >57, ?
CCCCNC(=O)C1C2C=CC3(CN(Cc4ccc(C)cc4)C(=O)C13)O2 (configuration not stated)
→ >57, 14%
COc1ccc(OCC(=O)OCC(=O)Nc2ccc(S(=O)(=O)N3CCCCC3)cc2)cc1
→ >57, -1%
CN1CCC[C@@H]1CCO[C@](C)(c1ccccc1)c1ccc(Cl)cc1
→ >57&>57&>26, ?
CCOC(=O)CCC(NC(=O)c1cncc(O)c1)C(=O)OCC (configuration not stated)
→ >57, -11%
CC1=C(C(=O)Nc2ccccc2C)C(c2ccc(C)o2)C2=C(CCCC2=O)N1 (configuration not stated)
→ >57, -24%
COc1ccc(C(=O)OCC(=O)c2ccc(C)c(S(=O)(=O)N3CCOCC3)c2)cc1OC
→ >57, ?
CN(Cc1ccccc1)C(=O)CCS(=O)(=O)c1ccc2c(c1)n(C)c(=O)c(=O)n2C
→ >57, ?
COc1ccc(NC(=O)CSc2nc3c(cc2C#N)CN(C)CC3)cc1
→ >57, -1%
COc1ccc(Cn2c(CCC(=O)NCc3ccco3)nc3cccnc32)cc1
→ >57, ?
CCOC(=O)c1c(C)c(C(=O)NCc2ccccc2OC)c(C)n1C
→ >57, 3%
COc1ccc(CCNC(=O)CN2CCC(n3nnc4cc(F)ccc43)CC2)cc1OC
→ >57, 8%
CCCc1nnc(SCc2ccc(C(=O)OC)o2)n1N
→ >57, -9%
COCCNc1ncnc2ccc(-c3ccccc3OC)cc12
→ >57, 6%
O=c1c2ccccc2sn1-c1ccc(S(=O)(=O)N2CCCC2)cc1
→ >57, 0.13µM*
COc1ccc(-c2nnc3n2N=C(C)CS3)cc1OC
→ >57, -21%
Cc1cc(NC(=O)Nc2ccccc2)n(-c2ccccc2)n1
→ >57, 3%
O=C(NS(=O)(=O)c1ccccc1)c1ccccc1F
→ >57, 13%
COc1ccc(Cn2c(-c3ccco3)nc3oc4ccccc4c(=O)c3c2=O)cc1
→ >57, ?
C=CCOC(=O)C1=C(C)Nc2nc3ccccc3n2C1c1ccncc1 (configuration not stated)
→ >57, 5%
Clc1ccccn1
→ ., -1%

Part of the list above, field by field:
> Cc1oc(-c2cc(Cl)ccc2Cl)cc1-c1nn2c(C)nnc2s1
  SmPrx2 inh: >57
  Anthrax LT inh: 8%
> O=S(=O)(NCCSc1ccccc1)c1ccc2c(c1)OCCO2
  SmPrx2 inh: >57
  Anthrax LT inh: -21%

The list continues:
Screens in order – SmPrx2 inh, Anthrax LT inh
Cc1nnc(SCC(=O)NCCc2ccccc2)[nH]c1=O
→ >57, 1%
CN(C)S(=O)(=O)c1cccc(C(=O)Nc2cc(Cl)ccc2O)c1
→ >57, .
CCn1c(=O)cc(O)c2c(=O)n(C)c(=O)n(C)c21
→ >57, 5%
O=c1cc(-c2ccccc2)[nH]c2nc3ccccc3n12
→ >57, -6%
Cc1[nH]c2ccc(O)cc2c1CCN
→ >57&>57, ?
CCOC(=O)c1cnc2nc(Cc3ccccc3)[nH]n2c1=O
→ >57, 8%
O=S1(=O)C=C(Sc2nnc(-c3ccccc3)o2)c2ccccc21
→ >57, ?
COc1ccc(NC2SC(=O)N(CC(=O)O)C2=O)cc1 (configuration not stated)
→ >57, -13%
Cc1cc(C)n(S(=O)(=O)c2ccc3ccccc3c2)n1
→ ., -25%
COc1ccc(Oc2ncc3nc(-c4cccs4)c(=O)n(Cc4cccs4)c3n2)cc1
→ >57, ?
CCCOC(=O)C1[C@H]2C(=O)N(C(C)c3ccc(OC)cc3)C[C@]23C=C[C@H]1O3 (some centres not stated)
→ >57, -17%
Cc1cccc(Nc2ccncc2S(=O)(=O)NC(=O)NC(C)C)c1
→ >57, 9%[3.58 µM]
COCCn1c(SCC(=O)NC(=O)NCc2ccccc2)nc2ccccc21
→ >57, 5%
Cc1ccn2cc(C(=O)Nc3ccccc3N3CCOCC3)nc2c1
→ >57, ?
CNCCc1c[nH]c2ccc(O)cc12
→ >57, 2%
CCOC(=O)Cn1nnc(-c2ccc(SC)cc2)n1
→ >57, 17%
O=C(N/N=C1/C[C@@H](O)[C@@H](O)[C@@H]2[C@@H]3C(=O)N(Cc4ccc5c(c4)OCO5)C(=O)[C@H]3CC[C@@H]12)OCc1ccccc1
→ ., -1%[8 µM]
Cn1c(=O)[nH]c(=O)c2c1nc(CN1CCN(Cc3ccccc3)CC1)n2CC(N)=O
→ >57, -3%
Cc1cccc(Cn2c(NCCO)nc3c2c(=O)n(C)c(=O)n3C)c1
→ >57, 2%
Cc1cc2nc(SCC(=O)O)nc(C)c2cc1C
→ >57, 4%
COc1ccc(NC(=O)Cn2cccc2)c(OC)c1
→ >57, 8%
Cc1ccccc1C(N)=O
→ ., 0%
COc1cccc(C(=O)Nc2c3c(nn2-c2cccc(C)c2C)CS(=O)C3)c1OC (configuration not stated)
→ >57, 7%
COc1ccc(-c2nnc3n2-c2ccccc2SC3)cc1OC
→ >57, 6%
O=C(CCc1n[nH]c(=O)[nH]c1=O)N1CCOCC1
→ >57, 3%
Fc1ccccc1CSc1nnc(Cn2cnc3ccccc32)n1-c1ccccc1
→ >57, -8%
CCCc1nc2ccccc2c(=O)n1-c1cccc(OC)c1
→ >57, ?
Cc1noc(C)c1-c1cc(NCc2cccs2)ncn1
→ >57, 9%
CCOc1ccc(N(CC(=O)NCc2ccc(OC)cc2)S(=O)(=O)c2c(C)noc2C)cc1
→ >57, 5%
CC(C)c1ccc(-c2nc(N3CCCC3)nc3n[nH]c(N)c23)cc1
→ >57, ?
COc1ccc(Cl)cc1N(CC(=O)Nc1ccccc1SC)S(C)(=O)=O
→ >57, -16%
O=C(NCCC1=CCCCC1)c1cnsn1
→ >57, -18%
CCOC(=O)c1c(C)[nH]c(C(=O)OC/C(O)=C(\C#N)c2nc3ccccc3[nH]2)c1C
→ >57, ?
O=C(Nc1ccc(-c2nc3ccccc3[nH]2)cc1)C1CCCO1 (configuration not stated)
→ >57, 8%
O=C(c1cccc(F)c1)N1CCC2(CC1)CN(c1ccc(-c3ccccc3)cc1)C2
→ >57, -5%
Cn1c(=O)c2c(ncn2CN2CCN(Cn3cnc4c3c(=O)n(C)c(=O)n4C)CC2)n(C)c1=O
→ >57, -17%[8 µM]
CCCC(=O)N(c1ccc(F)cc1)C1C=CS(=O)(=O)C1 (configuration not stated)
→ >57, -5%
Clc1cccc(C(Cl)(Cl)Cl)n1
→ ., 2%
O=C(Nc1ccc(Cl)cc1)C1CC=CCC1C(=O)OCC(F)(F)C(F)F (configuration not stated)
→ >57, 8%
O=C(c1ccco1)N1CCN(C(=O)c2ccc(Cn3cc(Br)cn3)o2)CC1
→ >57, -1%
COC(=O)c1cc2sc(Cl)cc2n1CC(=O)Nc1cccc(SC)c1
→ >57, ?
N=C(N)SCCc1cccc(CCSC(=N)N)c1
→ >57, -5%
COc1ccc2c(c1)CC1(CN2C)C(=O)NC(=O)N(c2ccc(C)cc2)C1=O (configuration not stated)
→ >57, -3%
O=S(=O)(N=S(N1CCCCC1)N1CCCCC1)c1ccccc1
→ >57, -2%
Cc1ccc(OCc2nnc(SCC(=O)Nc3sc(C)c(C)c3C#N)n2C)cc1
→ >57, 1%
CCc1ccc(N(CC)c2ncnc3nc[nH]c23)cc1
→ >57, 9%
Cc1cc(-c2ccccc2)c2c3c(cn2n1)c(=O)n(C)c(=O)n3C
→ >57, 4%
CNC(=O)[C@@H](Cc1ccccc1)N(C)C(=O)[C@@H](Cc1ccc2ccccc2c1)N(C)C(=O)/C=C/CC(C)(C)N
→ ., 2%
COc1cc(C2C(C#N)=C(C)NC3=C2C(=O)CC(C)(C)C3)ccc1O (configuration not stated)
→ >57, 8%
Cc1ccccc1OCC(O)CN (configuration not stated)
→ >57, -7%

(more compounds)
Screens in order – SmPrx2 inh, Anthrax LT inh
CCOC(=O)C1CCCN(C(=O)c2cn(C)c3ccc(S(=O)(=O)N4CCCC4)cc3c2=O)C1 (configuration not stated)
→ >57, 11%
CCCOC(=O)Cn1c(=O)c2cc3c(=O)n(CC(=O)OCCC)c(=O)c3cc2c1=O
→ >57, 6%
CCOC(=O)c1c(C)oc2ccc(OCC(=O)N(CC)CC)cc12
→ >57, .
Cc1ccc(NC(=O)c2cc(NC(=O)c3ccco3)ccc2N2CCCCC2)cc1
→ ., -13%
CCOC(=O)CN1CC23C=CC(O2)C(C(=O)Nc2ccc(F)c(C)c2)C3C1=O (configuration not stated)
→ >57, 11%
Cc1cccc(NC(=O)CSc2nnc(-c3ccccc3Br)o2)c1C
→ >57, -7%
O=C(O)CCNc1ncnc2nc[nH]c12
→ >57, -3%[8 µM]
CC(C)(C)OC(=O)N1CCC(C(=O)N2CCC[C@H]2C(=O)O)CC1
→ >57, ?
CCCS(=O)(=O)N1CCCC(C(=O)NC2CCCC(C)C2C)C1 (configuration not stated)
→ >57, 6%
Cc1ccc(-c2nsc3c(N4CCC(C(N)=O)CC4)ncnc23)cc1
→ >57, 5%
Cc1cc2ccc(OC(=O)c3ccc(N=C(N)N)cc3)cc2oc1=O
→ ?, ?
CCOC(=O)c1c(C)nn(Cc2cccc(Cl)c2)c1N
→ >57, -13%
O=C(CSc1nc2ccsc2c(=O)n1-c1ccccc1)N1CCCC1
→ >57, .
CCN(c1ccccc1)c1nc2ccsc2c(=O)s1
→ >57, ?
O=C(O)C1CC=CCC1C(=O)Nc1cccc(F)c1 (configuration not stated)
→ >57, 2%
CCOC(=O)c1cccc(NC(=O)CSc2nc(N)cc(N)n2)c1
→ >57, 16%
CC1(C)OC(C(O)(c2cc(C(F)(F)F)cc(C(F)(F)F)c2)c2cc(C(F)(F)F)cc(C(F)(F)F)c2)C(C(O)(c2cc(C(F)(F)F)cc(C(F)(F)F)c2)c2cc(C(F)(F)F)cc(C(F)(F)F)c2)O1 (configuration not stated)
→ ., -10%[8 µM]
CCCOC(=O)c1ccc(NC(=O)c2cnccn2)cc1
→ >57, 4%
O=C(Nc1ccc2oc(-c3ccncc3)nc2c1)c1c(F)c(F)c(F)c(F)c1F
→ >57, -4%
COc1ccccc1CC(=O)N(CCC#N)CCC#N
→ >57, 1%
O=C(NCc1cccc(C(F)(F)F)c1)C1CCN(c2ncccn2)CC1
→ >57, -12%
Cc1ccc(S(=O)(=O)NCc2ccc(C(=O)N3CCN(c4ccccn4)CC3)cc2)cc1
→ >57, -2%
C(=N\n1cnnc1)/c1ccc(OC2CSC2)cc1
→ ., 13%
CC1=C(C)C(=O)NC(Nc2nc(C)c3cc(C)cc(C)c3n2)N1 (configuration not stated)
→ >57, 0%
COc1ccccc1-c1cc(=O)c2cc(O)ccc2o1
→ >57, 15%
CCn1c(CSc2nccn2C)nc2cc(C(=O)O)ccc21
→ >57, 10%
N#Cc1ccccc1NC(=O)COC(=O)c1ccc2c(c1)OCCO2
→ >57, 11%
Cc1ccc(-c2cc(C(=O)N3CCN(c4ncccn4)CC3)c3ccccc3n2)cc1
→ >57, ?
O=C/C=C/c1ccccc1
→ ., 1%&0%
CC1(C)CC(=O)C2=C(C1)OC(N)=C(C#N)C21CCN(Cc2ccccc2)CC1
→ >57, 5%
